Ab BasE inh – BasE siderophore enzyme inhibitors, primary screen, biochemical, Acinetobacter baumannii ATCC 17978, fluorescence polarization; purified BasE, fluorescence polarization binding displacement; inhibition, % (concentration not given with the values); 84,000 tested, 0.1% active; AID 485350, 2010;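 active = both replicates above 25% with normal brightness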;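 also: 0% = negative plate control signal and 100% = positive plate control signal; stock transfer was 100 nL into about 30 µL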
LANA-nucl inh – inhibitors of KSHV LANA-nucleosome binding, primary screen, biochemical, fluorescence polarization, FITC-LANA1-23, chicken nucleosomes; FITC-LANA1-23 / chicken nucleosome fluorescence polarization; active compounds read low; z-score (test concentration not listed); 51,000 tested, 0.3% active; AID 720717, 2013;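 active = both repeat wells score below -2 in polarization z-score versus plate sample wells, excluding overly bright wells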;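 also: 100 nL library stock added to about 30 µL; numbers are from one replicate; some results filed as inactive read as strong as hits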
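Assay system: FITC-LANA peptide and chicken nucleosomes; input: 240 nM purified chicken nucleosomes (480 nM peptide binding sites), final; also added: 50 nM FITC-LANA1-23 probe; medium: TEN-BT buffer, pH 7.5; doses: pin-transferred compound, 100 nL; times: 10–45 min, room temperature; technique: fluorescence polarization; replication: duplicates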
Starred values were filed as active, the others as inactive; . = no result given; & = joins results of further samples. Not all compounds are listed; rates above refer to the full screens.

#1 O=C(CSc1ccc(Cl)cc1)Nc1cscc1S(=O)(=O)c1ccc(Cl)cc1
#2 O=C1CC(c2ccccc2)CC(=O)C1=CN1CCCC1 (stereo not given)
#3 C=CCN1C(=O)N(c2cccc(C)c2)C(=O)C1CC(=O)Nc1cc(OC)cc(OC)c1 (stereo not given)
#4 CC(c1nnc(SCC(=O)N2CC(=O)Nc3ccccc32)n1Cc1ccccc1)N(C)C (stereo not given)
#5 CN1CCN(C(=O)C2CCCN(S(=O)(=O)c3ccc(Br)cc3)C2)CC1 (stereo not given)
#6 CN(CC1CCCO1)S(=O)(=O)c1ccc(C(=O)Nc2sccc2C(N)=O)cc1 (stereo not given)
#7 COc1cc2[nH]c(=O)n(CCC(=O)N3CCN(c4cccc(C(F)(F)F)c4)CC3)c(=O)c2cc1OC
#8 COCc1c(C(=O)N2CCN(S(=O)(=O)c3cccs3)CC2)oc2ccccc12
Screen / compound no. | 1 | 2 | 3 | 4 | 5 | 6 | 7 | 8
Ab BasE inh | -2.5 | 1.5 | -0.1 | 1.1 | 1.4 | -4.2 | -0.9 | -0.2
LANA-nucl inh | . | . | -0.425 | . | -0.288 | -1.67 | -0.311 | .

#9 Cc1onc(-c2ccccc2)c1C(=O)NNc1ccc(C(C)(C)C)cc1
#10 O=C(O)CCc1n[nH]c2c1CCCC2
#11 Cc1cc(C(=O)COC(=O)C2COc3ccccc3O2)c(C)n1-c1cccc(S(=O)(=O)N2CCOCC2)c1 (stereo not given)
#12 N#CCCn1cc(/C=N/NC(=O)C23CC4CC(CC(C4)C2)C3)c(-c2ccccc2)n1
#13 Cc1ccc(-c2ocnc2C(=O)Nc2ccccc2NC(=O)c2ccccn2)cc1
#14 Cc1nn(C)c(C)c1NC(=S)Nc1ccc(S(=O)(=O)Nc2ncccn2)cc1
#15 Cc1nc(CC(=O)NN)cs1
#16 CC1=C2C(N)=C(C(=O)Nc3ccccc3)SC2NC(C(F)(F)F)=C1 (stereo not given)
Screen / compound no. | 9 | 10 | 11 | 12 | 13 | 14 | 15 | 16
Ab BasE inh | 2.5 | 0.8 | 0.5 | 0.2 | 1.2 | 0.7 | -0.5 | -9.3
LANA-nucl inh | -0.069 | -0.987 | . | . | -0.69 | 0.309 | . | 0.525

#17 COc1ccc(NC(=O)C(C)NC(=O)c2ccco2)cc1NS(=O)(=O)c1ccc(F)cc1 (stereo not given)
#18 O=C(CSc1nc2ccccc2o1)N1N=CCC1c1ccccc1 (stereo not given)
#19 O=C(C1CC1)N1N=C(C2CCCCC2)CC1(O)C(F)(F)F (stereo not given)
#20 COCC(C)NC(N)=O (stereo not given)
#21 CN1C(C/C(=N\NC(N)=O)c2ccccc2)CCCC1CC(O)c1ccccc1 (stereo not given)
#22 Cc1cc2c(cc1C)CSC(c1ccccc1)SC2
#23 O=C(CCC(=O)Nc1nc(-c2cc3ccccc3oc2=O)cs1)NCc1ccco1
#24 CCCn1c(-c2ccc(S(=O)(=O)N3CCOCC3)cc2)csc1=Nc1ccccc1
Screen / compound no. | 17 | 18 | 19 | 20 | 21 | 22 | 23 | 24
Ab BasE inh | -0.5 | 3.5 | -1.0 | 0.8 | 2.6 | 0.3 | 0.2 | 2.9
LANA-nucl inh | . | -0.318 | . | . | . | . | 0.493 | .

#25 O=C(c1cc2n(n1)CCCN(Cc1ccccc1)C2=O)N1CCCCCC1
#26 Cc1ccccc1C(=O)OC(C)CN1CCCCC1 (stereo not given)
#27 CCC/C(O)=C1/C(=O)CC(c2ccccc2)CC1=NC(C)C(=O)O (stereo not given)
#28 COc1ccc(OC)c(NC(=O)CCN2CCC(C)CC2)c1
#29 CC1O[C@]2(C)OC1[C@]1(C)OC(C)[C@H]2O1 (stereo not given in full)
#30 O=C(N/N=C/c1ccc(O)cc1)c1ccccc1
#31 COc1ccc(SCC(=O)NCc2ccc3c(c2)OCO3)cc1
#32 CN(CCOc1ccc(Cl)cc1)CN1C(=O)C2CC=CCC2C1=O (stereo not given)
Screen / compound no. | 25 | 26 | 27 | 28 | 29 | 30 | 31 | 32
Ab BasE inh | -0.9 | -0.5 | 3.8 | 1.0 | -1.8 | 1.6 | 3.7 | 1.7
LANA-nucl inh | 0.011 | 0.039 | . | -0.536 | 1.75 | 0.698 | . | .

#33 Cn1c2ccc(F)cc2c2n[nH]c(=S)nc21
#34 CC(NS(=O)(=O)c1ccc(C(C)(C)C)cc1)C1C2CC3CC(C2)CC1C3 (stereo not given)
#35 Cc1ccc2c(CSCc3cc(=O)n4c(C)csc4n3)cc(=O)oc2c1
#36 O=C(N/N=C/c1ccc(N2CCOCC2)cc1)c1cccs1
#37 FC(F)(F)c1cccc(N=C=S)c1
#38 Cc1ccc(Cn2cc[nH]c(=O)c2=O)cc1
#39 CN(C/C(O)=C(\C#N)c1nc2ccccc2s1)C1CCCCC1
#40 CC(C)(C)CNC(=S)NN
Screen / compound no. | 33 | 34 | 35 | 36 | 37 | 38 | 39 | 40
Ab BasE inh | 0.8 | -0.8 | 1.4 | -0.3 | -3.1 | 0.9 | -0.3 | 1.2
LANA-nucl inh | -0.169 | . | . | . | . | 0.69 | -1.26 | -0.0005

#41 C=CCn1cc(C=C2C(=O)OC3(CCCC3)OC2=O)c2ccccc21
#42 COc1ccc(NC(=S)N(Cc2c(C)noc2C)c2ccccc2)cc1
#43 CC(Sc1nnc(C(C)(C)C)n1N)C(=O)Nc1ccc(Oc2ccccc2)cc1 (stereo not given)
#44 CCOC(=O)N1CCC(NC(=O)C2CCCN2C(=O)OCc2ccccc2)CC1 (stereo not given)
#45 CCCCNc1ccc2nnc(CCNC(=O)c3ccccc3)n2n1
#46 CCc1noc(C)c1C(=O)NCc1ccc2c(c1)OCO2
#47 O=c1[nH]n(-c2ccc(S(=O)(=O)N3CCc4ccccc43)cc2)c(=O)c2ccccc12
#48 CN(C)c1ccc(C2Nc3ccccc3C(=O)N2CCN2CCNC2=O)cc1 (stereo not given)
Screen / compound no. | 41 | 42 | 43 | 44 | 45 | 46 | 47 | 48
Ab BasE inh | 1.7 | 1.5 | 1.3 | 1.0 | -0.8 | 2.2 | 3.1 | -2.6
LANA-nucl inh | . | . | . | -0.301 | -0.839 | . | 0.16 | 1.4

Next section (four carried over from the part before).
#45 CCCCNc1ccc2nnc(CCNC(=O)c3ccccc3)n2n1
#46 CCc1noc(C)c1C(=O)NCc1ccc2c(c1)OCO2
#47 O=c1[nH]n(-c2ccc(S(=O)(=O)N3CCc4ccccc43)cc2)c(=O)c2ccccc12
#48 CN(C)c1ccc(C2Nc3ccccc3C(=O)N2CCN2CCNC2=O)cc1 (stereo not given)
#49 CC1=C/C(=N\NC(=O)c2ccccc2)CC1
#50 O=C1N(Cc2ccccc2)c2cccc3cccc(c23)N1Cc1ccccc1
#51 CCCc1nn(-c2ccc(Cl)cc2)cc1C(=O)Nc1ccc(Cl)cc1
#52 CC(C)C(Sc1nnc(C(F)(F)F)n1C)C(=O)NC(N)=O (stereo not given)
#53 CC(=O)NC1=C(c2ccccc2)C(=O)c2ccccc2C1=O
#54 CCCC(C)C(=O)N1CCCCC1CC (stereo not given)
#55 C1CCC(c2nnc3n2N=C2CCCCC2S3)CC1 (stereo not given)
#56 CCc1c(C)sc(NC(=S)N2CCN(S(C)(=O)=O)CC2)c1C(=O)OC
Screen / compound no. | 45 | 46 | 47 | 48 | 49 | 50 | 51 | 52 | 53 | 54 | 55 | 56
Ab BasE inh | -0.8 | 2.2 | 3.1 | -2.6 | 1.0 | 1.6 | 3.4 | 1.2 | -2.0 | 1.2 | -2.2 | 1.9
LANA-nucl inh | -0.839 | . | 0.16 | 1.4 | . | . | . | . | . | -0.125 | . | 0.807

#57 Cn1cnc([N+](=O)[O-])c1Sc1ncnc2nc[nH]c12
#58 CC(C)C(C)NC(=O)CSc1nc2ccccc2n1C (stereo not given)
#59 COc1cccc(/C=C2\C(=O)NC(=O)N(C)C2=O)c1
#60 CCOc1ccc2c(=O)c(Oc3ccccc3)c(C)oc2c1C
#61 CCOC(=O)C1=C(N)Oc2ccc(Cl)cc2C1C(C#N)C(=O)OCC (stereo not given)
#62 N#C/C(=C(/Oc1ccc(C#N)cc1)C(F)(F)F)c1ccccc1
#63 CCOC(=O)C1=C(CSc2nc3sc4c(c3c(=O)n2C)CCC4)NC(=O)NC1C (stereo not given)
#64 O=c1c2sc(-c3ccccc3)cc2[nH]c(=S)n1CCN1CCOCC1
Screen / compound no. | 57 | 58 | 59 | 60 | 61 | 62 | 63 | 64
Ab BasE inh | 0.9&-0.5 | -2.0 | -0.9 | 1.3 | 1.5 | 1.3 | 1.1 | 3.8
LANA-nucl inh | -0.0675&0.038&0.203 | . | . | 0.867 | 0.444 | . | . | .

#65 Cc1nc2n(n1)C(C(=O)NCCc1ccccc1)CC(=O)N2 (stereo not given)
#66 O=C(COc1ccc(Cl)cc1)N1CCCc2ccccc21
#67 CCCCNS(=O)(=O)c1ccccc1F
#68 N#CN=C1CCCCCN1CC(N)=O
#69 C=CCNC(=O)c1cc2ccccc2o1
#70 Cc1cc(NC(=O)C2Cc3ccccc3C(=O)O2)no1 (stereo not given)
#71 COc1ccc(CC(=O)OCc2nnc(C3COc4ccccc4O3)o2)cc1OC (stereo not given)
#72 Cc1nc(NCC2CCCO2)c2c3c(sc2n1)CCC3 (stereo not given)
Screen / compound no. | 65 | 66 | 67 | 68 | 69 | 70 | 71 | 72
Ab BasE inh | -1.7 | -0.3 | 1.7 | 3.8 | -4.4 | 2.4 | -2.1 | -1.1
LANA-nucl inh | -0.847 | -0.687 | . | 0.088 | . | -0.409 | . | -0.029

#73 N#Cc1cc2c(=O)c3ccccc3oc2nc1-c1cc2ccccc2o1
#74 O=C(CCOc1ccccc1F)Nc1ccc2c(c1)OCO2
#75 CSc1ncccc1C(=O)OCC(=O)N1CCCc2ccccc21
#76 CN(C)S(=O)(=O)c1ccc(NC(=O)C2CCCCC2)cc1
#77 NCC1CCN(S(=O)(=O)c2ccccc2)CC1
#78 O=C(NC1C2CC3CC(C2)CC1C3)c1cccnc1 (stereo not given)
#79 CCc1c(CN2CCCCC2)csc1C
#80 CCCn1c(=S)[nH]c2c1c(=O)[nH]c(=O)n2C
Screen / compound no. | 73 | 74 | 75 | 76 | 77 | 78 | 79 | 80
Ab BasE inh | 2.5 | 1.0 | -0.2 | 1.0 | 0.5 | 0.5 | -6.9 | 1.5
LANA-nucl inh | . | . | . | 0.445 | -0.367 | -0.284 | 0.964 | -0.501

#81 N#Cc1ccc(-c2ccc(Oc3ncccn3)cc2)cc1
#82 NC(=O)NC(CC(=O)O)c1ccc(Cl)cc1 (stereo not given)
#83 COc1ccc(/C=C2/C(=N)N3C(SC)=NSC3=NC2=O)cc1
#84 COCCn1c(C)cc(C(=O)CSc2nnc(C)s2)c1C
#85 CC(C)(C)c1cc(C(F)(F)F)c2c(=O)n(-c3ccccc3)[nH]c2n1
#86 COc1ccc(COC(=O)c2cc(O)c3ccccc3c2O)cc1F
#87 Cc1cc(CNC(C)c2ccco2)c(C)n1-c1ccnn1C(C)C (stereo not given)
#88 Cc1cc(C)n(CCCNC(=O)CCc2ccc(S(=O)(=O)N3CCOCC3)cc2)n1
Screen / compound no. | 81 | 82 | 83 | 84 | 85 | 86 | 87 | 88
Ab BasE inh | -1.7 | 3.5 | 0.4 | -2.6 | 1.4 | 4.6 | -3.0 | 1.4
LANA-nucl inh | . | . | -0.0705 | -0.529 | -0.803 | . | . | .

Exported with each value named: 2 of the compounds above.
88: Cc1cc(C)n(CCCNC(=O)CCc2ccc(S(=O)(=O)N3CCOCC3)cc2)n1
  Ab BasE inh: 1.4 | LANA-nucl inh: .

83: COc1ccc(/C=C2/C(=N)N3C(SC)=NSC3=NC2=O)cc1
  Ab BasE inh: 0.4 | LANA-nucl inh: -0.0705

Next section
#89 Cc1c(S(=O)(=O)N(C)c2ccccc2)sc2ccc(Cl)cc12
#90 CCOc1cc(S(=O)(=O)N(C)C2CCCCC2)c(OCC)cc1-n1cnnn1
#91 c1ccc2c3c([nH]c2c1)-c1ccsc1CC3
#92 COc1ccccc1NCc1ccccc1O
#93 O=C(NC1CCCC1)c1ccc(N2CCOc3ccccc32)s1
#94 FC(F)(F)c1ccc(N2CCCCCC2)nc1
#95 CN1CCN(c2ccc(CNC(=O)c3ccc4nsnc4c3)cc2)CC1
#96 Cc1ccc(-c2cc(NC(=O)CC(C)C)on2)cc1
Screen / compound no. | 89 | 90 | 91 | 92 | 93 | 94 | 95 | 96
Ab BasE inh | 0.4 | -0.7 | 2.8 | -2.5 | 1.1 | -0.8 | 1.6 | 3.7
LANA-nucl inh | . | 0.0995 | 0.348 | . | 1.02 | 0.675 | . | -0.394

#97 Cc1cc(-c2ccccc2)cc(-c2ccccc2)[o+]1
#98 CC1(C)N([O-])c2ccccc2[N+]1=O
#99 O=C(CSc1nccc(-c2cccnc2)n1)Nc1ccccc1
#100 Cc1c(C)c(C)c(S(=O)(=O)NCCCN2CCOCC2)c(C)c1C
#101 CC(=O)NC(C)c1ccc(-c2csc(N)n2)cc1 (stereo not given)
#102 CCN1C(=O)/C(=C2/Sc3ccccc3N2CC)SC1=S
#103 CN(C)C(=O)Cn1c(SCC(=O)NC2CCCCC2)nc2ccccc21
#104 O=C(NN1C(=O)c2ccccc2NC1c1cccnc1)c1ccccc1 (stereo not given)
#105 CCn1c(NC(=O)c2ccccc2)nc2ccccc21
#106 COC(=O)C1=CNC=C(C(=O)OC)C1c1ccccc1C
#107 CC1(C)CCc2cc(-c3ccnc(=S)[nH]3)ccc2O1
Screen / compound no. | 97 | 98 | 99 | 100 | 101 | 102 | 103 | 104 | 105 | 106 | 107
Ab BasE inh | 2.4 | 3.9 | -1.7 | -0.3 | 3.1 | -0.2 | 0.2 | -0.7 | 2.2 | 28.5* | -0.2
LANA-nucl inh | . | -0.174 | -0.0875 | . | . | 1.51 | -0.967 | -1.52 | 0.305 | -0.573 | .
